# Autofluor counter: compound fluorescence in toxin protease inhibitor counterscreen | compound autofluorescence counterscreen, microsphere flow cytometry; active compounds read high | fluorescence intensity (test concentration not listed) | actives 3.1% (n = 360,000) | AID 624483;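 active = at least 3 SD above the mean of all compounds, about 16000 in these data; inconclusive = too few beads counted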;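 also: 100 nL of 1 mM stock went into each well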
# Sa ugtP lethal: growth inhibition of ugtP-null S. aureus, primary screen, RN4220 ugtP deletion, OD600 | actives 0.54% (n = 330,000) | AID 1259309, 2017 | growth inhibition, % (test concentration not listed) | 16 h; some inactives read as strong as hits;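 active = z-score under -3 and OD600 up to 0.15 on both plates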;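 also: plate controls were untreated wells for no effect and antibiotic for full effect; wells of about 80 µL received 100 nL stock; the first replicate is given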
# BJeLR lethal: MLPCN primary cell-based screen for lethality selective to Ras in HRASV12 cells. BJeLR (HRASV12) viability, CellTiter-Glo ATP luminescence, 48 h; reference of the scale not given here. actives 0.17% (n = 300,000). inhibition, % (no concentration beside the values);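 active = replicate mean above 50%; inconclusive = above 50% but judged a plate artefact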;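 also: 50 nL library stock added to about 25 µL; numbers are from one replicate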
# RN4220 kill: growth inhibition of S. aureus RN4220, primary screen, OD600; 16 h; inhibition, % (concentration not given with the values); actives 0.33% (n = 330,000); AID 1259311, 2017;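 active = z-score of -3 or lower and OD600 up to 0.18 on both plates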;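 also: plate controls were untreated cells for no effect and reference antibiotic for full effect; stock transfer was 100 nL into about 80 µL; one replicate is shown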
# PrP UTR inh: inhibition of PrP 5' UTR reporter expression; cell-based PrP 5' UTR mRNA reporter, plate reader; inhibition, % (test concentration not listed); actives 0.35% (n = 340,000);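 active = every replicate at 50% or more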;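 also: 0 = median of the neutral control wells; tested in H4 reporter cells; numbers are from one replicate; inactives centre near -14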
# Mtb hypoxia rep: PubChem AID 1159583; M. tuberculosis hypoxia-regulated fluorescent reporter, fluorescence; fluorescence inhibition, % (test concentration not listed); actives 0.1% (n = 300,000);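 active = 35 to 45% if threefold the growth effect, above 45% if 1.5-fold the growth effect; inactive = the rest, general growth blockers included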;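 also: wells of about 50 µL received 100 nL stock; 0% = vehicle wells and 100% = reference inhibitor wells; whole bacteria with a GFP reporter of the hypoxia response; strong numbers were not always called active; many hits fall short of the cut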
# Mtb hypoxia rep growth: further read-out of Mtb hypoxia rep, marked with its call; growth inhibition, %; measured here: M. tuberculosis growth (absorbance);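 0% = vehicle and 100% = reference antibiotic; read after six days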
# * marks the source's active call; other numbers are inactive results; ? = inconclusive; . = no result given.
molecule	Autofluor counter	Sa ugtP lethal	BJeLR lethal	RN4220 kill	PrP UTR inh	Mtb hypoxia rep	Mtb hypoxia rep growth
Cc1cc(C)c(C)c(S(=O)(=O)N2CCC(C(=O)NCC(c3ccccc3)N(C)C)CC2)c1C (stereo not drawn)	3257	16	6	4.1	-20	2	5
O=C(NCc1ccco1)c1ccc(S(=O)(=O)N2CCCCC2)cc1	3593	-4	11	3.9	-14	-1	0
CC1(C)Oc2ccc(C(=O)N3CCOCC3)cc2N(CC(=O)N2CCOCC2)C1=O	4438	5	-7	8.5	-5	-3	-1
CC1(C(=O)NC2CCCCC2)CCC(=O)N1Cc1cccs1 (stereo not drawn)	5138	3	12	3.2	-4	6	1
CC(Sc1nnc2c(n1)[nH]c1ccccc12)C(=O)N(C)C1CCCCC1 (stereo not drawn)	4039	5	7	5.7	-16	-3	-3
CC(CNC(=O)CCCn1ncn2c(cc3occc32)c1=O)c1ccccc1 (stereo not drawn)	4523	2	12	2.1	-10	-6	-6
COCCN1CCN(C(=O)C2CCC(=O)N(CCc3ccc(Cl)cc3)C2)CC1 (stereo not drawn)	5146	5	-6	-0.3	-15	9	1
CCNS(=O)(=O)c1ccc(NC(=O)c2ccccc2SCCOC)cc1	2577	10	2	4.6	-17	14	0
CCOC(=O)c1ccc(NC(=O)c2cccc(S(=O)(=O)N3c4ccccc4CC3C)c2)s1 (stereo not drawn)	2597	-21	-18	-13	1	9	11
O=c1cc(-c2ccccc2)c2ccc(O)c(CN3CCCCC3)c2o1	10103	-3	7	0.1	-26	-2	0
O=C(CSc1nnc(-c2cccs2)o1)N1CCCc2ccccc21	2530	-2	3	-1.4	-23	10	12
Cc1c(Cl)cnc(NC(=O)COC(=O)c2nn(C)c(=O)c3ccccc23)c1Cl	2600	-8	6	-1.0	-10	-1	0
S=C1Nc2cc(Cl)ccc2Sc2ccccc21	2160	.	-7	.	-27	.	.
COCCN(C(=S)Nc1ccccc1C)C(C)c1cccs1 (stereo not drawn)	2403	9	5	5.1	-11	9	8
CC(CCc1ccccc1)NC(=O)C(=O)c1c[nH]c2ccccc12 (stereo not drawn)	.	1	-2	1.4	-13	-1	-5
O=C(COC(=O)CNC(=O)c1ccc2c(c1)OCO2)Nc1ncc(Cl)cc1Cl	3941	1	2	0.5	-13	6	-4
Cc1ccc(CNC(=O)CCS(=O)(=O)c2ccc(C)cc2)cc1	3561	4	-9	5.2	20	-5	-6
O=C(CSc1ccc(-c2ccccc2)nn1)N1CCOCC1	10771	-3	2	3.4	-16	8	5
O=C(CSc1nc2ccccc2o1)Nc1ccc(N2CCOCC2)cc1	11394	14	8	4.1	-19	6	6
COCc1ccc(CN2CCCC(CO)(Cc3ccccc3C)C2)o1 (stereo not drawn)	3789	5	1	6.7	7	5	5
COc1ccccc1C1CCN(Cc2cccc([N+](=O)[O-])c2)CC1	5823	12	0	1.7	-12	10	-6
CN1CCN(C(=S)SCc2nc(N)nc(Nc3ccc(F)cc3)n2)CC1	2152	-6	0	-4.5	-34	4	3
Cc1cccnc1N1C(=O)c2ccc(C(=O)O)cc2C1=O	3720	3	1	1.2	-27	1	-3
O=C1NC(=O)/C(=C/c2ccccn2)S1	5607	8	-5	2.0	-19	8	-4
CCN(CC)C(=O)CSc1nc2ccccc2c(=O)n1OC	3406	4	1	-6.4	-8	15	2
COCCn1c(SCC(=O)Nc2ccc(F)cc2)nc2c(oc3ccccc32)c1=O	2321	.	-1	.	-13	.	.
COc1ccc(-c2nnc(NC(=O)CS(=O)(=O)c3ccc(Cl)cc3)o2)c(OC)c1	6118	46	0	3.8	-33	4	3
COc1ccc2nc(SCC(=O)N3CC(=O)Nc4ccccc43)c(C#N)cc2c1	3506	5	28	-4.0	-13	0	5
CCOc1ccc(NC(=O)CSc2nc(=O)n(CCN3CCOCC3)c3c2CCCC3)cc1	5811	1	2	3.4	-4	2	2
CC1=NN(c2ccccc2)C(=O)/C1=C\c1ccc(Br)s1	2516	13	-1	3.1	-26	3	11
Cc1cc(-c2ccccc2)nc2[n+]1CCN2C	7187	9	-1	2.2	-12	-1	-7
Cc1ccc(S(=O)(=O)CCC(=O)OCn2nnc3ccccc3c2=O)cc1	3926	2	-23	2.7	-16	13	10
COC(=O)c1ccccc1OCCCOc1ccc(C=O)cc1OC	2977	9	2	-1.7	0	.	.
CCOC(=O)CC1(NC(=O)c2cc(COc3cncc(Cl)c3)on2)CCCCC1	4426	-7	3	2.6	-14	-1	1
COc1ccc(OC)c(C2C(C#N)=C(N)Oc3cc(C)n(Cc4ccccn4)c(=O)c32)c1 (stereo not drawn)	10074	-11	-7	6.4	-37	12	9
C[n+]1cnc(-c2ccccc2)cc1-c1ccccc1	7499	7	-4	2.6	8	2	1
O=C(c1ccc(-c2ccccc2)cc1)N1CCN(c2nc3ccccc3o2)CC1	4747	-10	.	-11	-18	2	2
O=C(NCCc1cccs1)c1cccs1	4767	1	3	1.9	-29	-8	12
O=C(Nc1cccc(C(F)(F)F)c1)c1cc(-c2ccco2)on1	3180	-1	-5	1.5	-14	-1	-6
COc1ccc(NC(=O)COC(=O)c2ccc(Cl)c(S(N)(=O)=O)c2)c([N+](=O)[O-])c1	5673	1	-4	4.3	7	14	-8
Clc1ccc2[nH]c3c(N4CCC5(CC4)OCCO5)ncnc3c2c1	.	-15	-1	-5.9	.	.	.
CCCn1nc(C(=O)NCc2ccccn2)c2ccccc2c1=O	4371	-4	4	-0.3	-8	.	.
Cc1nc2ccccc2n1CCc1ccccc1	4884	7	-1	3.7	-45	12	1
CC(=O)c1ccc(NC(=O)C2CCCN(c3ncnc4c3nc3n4CCCCC3)C2)cc1 (stereo not drawn)	6416	7	3	8.0	0	4	1
O=C1[C@@H]2Cc3c([nH]c4ccccc34)C(c3cccc([N+](=O)[O-])c3)N2C(=O)CN1C1CCN(Cc2ccccc2)CC1 (stereo partly drawn)	3800	.	-4	.	-9	.	.
C#CCN1C(=O)C2C(C(=O)NC)C3C=CC2(O3)C1C(=O)NCc1ccc(OC)cc1 (stereo not drawn)	4778	-5	3	-1.5	-6	.	.
CNC(=O)/C(C#N)=C/c1c(N(Cc2ccccc2)Cc2ccccc2)nc2ccccn2c1=O	2703	-2	-7	7.8	-16	-7	10
O=C(COc1ccccc1)Nc1ccc(NC(=O)c2ccco2)cc1	4338	-4	-6	-0.3	-1	11	4
O=C(O)c1ccc(-c2nc3ccccc3s2)o1	5237	7	3	6.0	-11	5	13
COc1ccc(N2CCCn3c2nc2c3c(=O)n(CCCc3ccccc3)c(=O)n2C)cc1	.	-3	-1	-9.2	.	3	7

# (list continues)
molecule	Autofluor counter	Sa ugtP lethal	BJeLR lethal	RN4220 kill	PrP UTR inh	Mtb hypoxia rep	Mtb hypoxia rep growth
CCSC1=C(C#N)C(c2ccccc2Cl)C(C(=O)c2cccs2)C(O)(C(F)(F)F)N1 (stereo not drawn)	4230	5	8	12	-16	-5	11
CCOC(=O)c1ccc(S(=O)(=O)N2CCC(C(=O)N3CCN(c4ccccc4OC)CC3)CC2)cc1	3996	25	.	-0.2	-15	-6	2
C[C@H](NC(=O)c1ccc(Cl)cc1)C(=O)NNC(=O)c1cccs1	?	0	.	1.1	-12	13	3
O=C(c1ccc(Cl)c(S(=O)(=O)N2CCc3ccccc32)c1)N1CCN(c2ccccc2O)CC1	3283	-9	.	4.0	-17	4	5
Cc1ccc(Oc2cc(C#N)c(C#N)cc2-n2nnc3ccccc32)cc1C	4617	3	9	0.5	-22	.	.
Cc1cc(-c2ccc(C)c(S(=O)(=O)NCCCN3CCN(c4ccccc4)CC3)c2)on1	6250	-3	7	0.5	-7	-2	7
Cc1ccc(/C=C/C(=O)CCC(=O)O)cc1	4727	0	1	4.3	-31	6	-1
CCc1ccc(Nc2nnc(SCc3cc(=O)n4ccsc4n3)s2)cc1	2625	9	11	22	-1	8	5
CC1=[N+](CC(=O)c2ccccc2)CCn2cccc21	4333	-7	4	-6.2	-33	6	10
O=C(NCc1cccs1)C1CCCN(c2ncccn2)C1 (stereo not drawn)	9412	-3	-2	-1.4	-7	-4	10
CC(NS(=O)(=O)c1ccc(CCC(=O)NCc2cccnc2)cc1)c1ccccc1 (stereo not drawn)	20378*	-6	-2	3.8	-38	-1	10
CCN(CC)S(=O)(=O)c1ccc2nc(NC(=O)c3cccs3)sc2c1	4219	-2	2	3.7	-19	.	.
Cc1ccc(C(=O)NC(=C(Cl)Cl)S(=O)(=O)c2ccccc2)cc1	2382	4	-2	1.7	-16	-3	7
CN(CC(=O)Nc1ccc(OC(F)(F)F)cc1)C(=O)Cn1c(=O)cnc2ccccc21	2970	4	.	5.1	-9	-5	1
CCCCCc1nc2c(=O)[nH]c3ccccc3c2o1	3292	-6	-1	4.6	-43	9	12
COC(=O)CC1C(=O)NCCN1C(=O)CSc1nc2cc(Cl)ccc2o1 (stereo not drawn)	4908	2	12	3.5	-18	3	-4
Cc1cccc(C(=O)ON=C(N)c2cccc([N+](=O)[O-])c2)c1	.	7	.	5.6	.	1	4
Cc1ccccc1NC(=O)Cc1nc(COC(=O)c2nc(Cl)ccc2Cl)cs1	6400	-7	.	-4.2	-15	-12	1
O=C(NC1CCCC1)C(c1ccncc1)N(C(=O)c1ccco1)c1ccc(F)c(Cl)c1 (stereo not drawn)	4494	4	-5	1.9	-11	7	3
Cc1cc(C)cc(NC(=S)NCc2ccc3c(c2)OCO3)c1	4677	-1	3	-2.5	-3	1	0
CC(CC(=O)Nc1ccccn1)=NNC(=O)Cc1cccc2ccccc12	.	7	.	5.2	.	14	9
O=[N+]([O-])c1cccc(S(=O)(=O)NCCc2cn3ccccc3n2)c1	3250	5	6	9.1	2	7	1
O=c1c(Cl)c(NC2CC2)cnn1-c1ccccc1	4321	16	-3	1.7	-15	-2	4
O=C(/C=C/c1cn(-c2ccccc2)nc1-c1cccnc1)N1CCCC1	4330	0	-6	8.4	-14	8	0
Cc1ccc(Sc2ncnc(N)c2[N+](=O)[O-])cc1	1982	2	-8	-2.5	-10	-5	7

# The final 2 entries of the part above open the next one:
molecule	Autofluor counter	Sa ugtP lethal	BJeLR lethal	RN4220 kill	PrP UTR inh	Mtb hypoxia rep	Mtb hypoxia rep growth
O=C(/C=C/c1cn(-c2ccccc2)nc1-c1cccnc1)N1CCCC1	4330	0	-6	8.4	-14	8	0
Cc1ccc(Sc2ncnc(N)c2[N+](=O)[O-])cc1	1982	2	-8	-2.5	-10	-5	7
COc1cc(C2Nc3ccccc3C(=O)N2NS(C)(=O)=O)c([N+](=O)[O-])cc1OC (stereo not drawn)	3455	2	-5	5.4	-33	12	12
COc1ccc(OC)c(CN2CCCC(C(=O)N3CCCCC3)C2)c1 (stereo not drawn)	10116	-4	0	4.0	-28	7	7
COC(=O)CN1C(=O)C(O)(CC(=O)c2ccc(C)o2)c2ccccc21 (stereo not drawn)	2539	11	-3	5.3	-8	10	1
O=C(c1ccc(Cl)c([N+](=O)[O-])c1)N1CCN(c2ccccn2)CC1	1961	1	-11	2.3	-16	10	10
COc1cccc(C(=O)Nc2c3c(nn2-c2cccc(C)c2C)CS(=O)(=O)C3)c1OC	9057	-11	1	-4.2	.	1	-5

# Compounds from the list above that contain fluorine (6):
molecule	Autofluor counter	Sa ugtP lethal	BJeLR lethal	RN4220 kill	PrP UTR inh	Mtb hypoxia rep	Mtb hypoxia rep growth
CN1CCN(C(=S)SCc2nc(N)nc(Nc3ccc(F)cc3)n2)CC1	2152	-6	0	-4.5	-34	4	3
COCCn1c(SCC(=O)Nc2ccc(F)cc2)nc2c(oc3ccccc32)c1=O	2321	.	-1	.	-13	.	.
O=C(Nc1cccc(C(F)(F)F)c1)c1cc(-c2ccco2)on1	3180	-1	-5	1.5	-14	-1	-6
CCSC1=C(C#N)C(c2ccccc2Cl)C(C(=O)c2cccs2)C(O)(C(F)(F)F)N1 (stereo not drawn)	4230	5	8	12	-16	-5	11
CN(CC(=O)Nc1ccc(OC(F)(F)F)cc1)C(=O)Cn1c(=O)cnc2ccccc21	2970	4	.	5.1	-9	-5	1
O=C(NC1CCCC1)C(c1ccncc1)N(C(=O)c1ccco1)c1ccc(F)c(Cl)c1 (stereo not drawn)	4494	4	-5	1.9	-11	7	3
